NPYLR7 agonist = mosquito NPYLR7 agonism; 270,000 compounds, 0.15% hits; AID 1259423; HEK293T NPYLR7/Galpha15, GCaMP6s calcium fluorescence; activation, % at 10 µM; in the data active means activation above about 40%;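 further: 0% = vehicle and 100% = reference agonist at the receptor; some compounds past the cut are filed as inactive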
NPYLR7 agonist max-min = also measured in NPYLR7 agonist; calls as there; activation, %; measured here: Max-Min RFU normalised activation; some inactives read as strong as hits;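 span of the calcium signal over five minutes; 0% = vehicle and 100% = native peptide agonist; compound fluorescence can raise it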
Starred values were filed as active, the others as inactive; & = joins results of further samples.

CC1CN(C(=O)CCN2CCc3sccc3C2c2cccc(F)c2)CCN1C(=O)c1ccc(C(F)(F)F)cc1 (stereo not drawn) was read as NPYLR7 agonist 10 and NPYLR7 agonist max-min -2.
Screening Cn1cc(CNCCN2CCOC2=O)c(-c2ccc(C3CCCCC3)cc2)n1 returned NPYLR7 agonist 13 and NPYLR7 agonist max-min 6.
Screening CCCc1cc(=O)n(CC(=O)Nc2ccccc2)c(-n2nc(C)cc2C)n1 returned NPYLR7 agonist -3 and NPYLR7 agonist max-min 1.
`Cc1cc(Oc2cc(N3CCN(C(=O)COCc4ccccc4)CC3)ncn2)ccc1Cl` gave NPYLR7 agonist -9 and NPYLR7 agonist max-min -4.
O=C1CCC(CCC(=O)N2CCC(C(O)c3cccs3)CC2)(Cc2ccccc2)N1 (stereo not drawn) was read as NPYLR7 agonist 25 and NPYLR7 agonist max-min 29.
Screening COC(=O)C1=C(C)N(C)C(=O)NC1c1ccc(OC)c(OC)c1 (stereo not drawn) returned NPYLR7 agonist -9 and NPYLR7 agonist max-min -11.
For CCOC(=O)C1(Cc2cccc(OC)c2)CCN(Cc2nc3ccccc3nc2C)CC1 the results were NPYLR7 agonist -8 and NPYLR7 agonist max-min -15.
O=C(CSc1nc(=O)n2cc(Cl)ccc2n1)Nc1ccc2c(c1)OCO2 was read as NPYLR7 agonist 3 and NPYLR7 agonist max-min 0.
Screening COc1ccc(-c2[nH]ncc2C(=O)N(C)CC(F)(F)F)cc1 returned NPYLR7 agonist -30 and NPYLR7 agonist max-min -28.
For C=CCOc1ccc(Br)cc1C1c2ccc(O)cc2OC(=N)C1C#N (stereo not drawn) the results were NPYLR7 agonist 24 and NPYLR7 agonist max-min 22.
`COc1cc(COC2CN(C(=O)c3csc(C(C)=O)c3)CC(=O)N(C(C)C)C2)cc(OC)c1` (stereo not drawn) gave NPYLR7 agonist 0 and NPYLR7 agonist max-min -6.
Screening COc1ccc(OC)c2c(N3CCN(C)CC3)cc(C(F)(F)F)nc12 returned NPYLR7 agonist 10 and NPYLR7 agonist max-min 5.

Retrieved by compound from above, two records:
Screening Cn1cc(CNCCN2CCOC2=O)c(-c2ccc(C3CCCCC3)cc2)n1 returned NPYLR7 agonist 13 and NPYLR7 agonist max-min 6.
Screening COc1ccc(OC)c2c(N3CCN(C)CC3)cc(C(F)(F)F)nc12 returned NPYLR7 agonist 10 and NPYLR7 agonist max-min 5.

(more compounds)
O=C1NC(=O)C2C(=NC3(O)c4ccccc4C(=O)C23O)N1 (stereo not drawn) was read as NPYLR7 agonist 3 and NPYLR7 agonist max-min 1.
Screening COCCN(CC(=O)Nc1nc(CC(=O)NCCN2CCCCC2)cs1)C(=O)c1ccco1 returned NPYLR7 agonist -8 and NPYLR7 agonist max-min -12.
`O=C(CSc1nc2c3ccccc3ncn2n1)Nc1ccc(Br)cc1` gave NPYLR7 agonist -3 and NPYLR7 agonist max-min -3.
`CCC(C(=O)N1CCN(c2nc(C)nc(C)c2Cc2ccccc2Cl)CC1)c1ccccc1` (stereo not drawn) gave NPYLR7 agonist 2 and NPYLR7 agonist max-min 7.
For O=C(c1cnc2ccccn2c1=O)N1CCc2c([nH]c3ccccc23)C1c1ccccn1 (stereo not drawn) the results were NPYLR7 agonist -5 and NPYLR7 agonist max-min -7.
CC(C)c1ccc(NC(=O)c2cc3occc3[nH]2)cc1 was read as NPYLR7 agonist -6 and NPYLR7 agonist max-min 497.
`COc1cccc(OC)c1OCC(O)CNc1c(F)cc(C#N)cc1F` (stereo not drawn) gave NPYLR7 agonist -8 and NPYLR7 agonist max-min -6.
COCCNC(=O)C(NC(=O)C1CC1)C1CCN(C(=O)c2ccco2)CC1 (stereo not drawn) was read as NPYLR7 agonist 14 and NPYLR7 agonist max-min 16.
`c1cncc(-c2nc3c(c(N[C@H]4CCc5ccccc54)n2)CNC3)c1` gave NPYLR7 agonist 1 and NPYLR7 agonist max-min 1.
`CCOC(=O)c1sc(N=CC2=C(O)CC(C)(C)CC2=O)c(C(=O)OCC)c1C` gave NPYLR7 agonist -16 and NPYLR7 agonist max-min -25.
`COc1cc(=O)n2c(c1C(=O)NCCCn1ccnc1)CCN(CC1=CC[C@H]3C[C@@H]1C3(C)C)CC2` gave NPYLR7 agonist 9 and NPYLR7 agonist max-min 6.
`Cc1c(C(=O)OC(C)C(=O)NCc2ccco2)oc2ccccc12` (stereo not drawn) gave NPYLR7 agonist -1 and NPYLR7 agonist max-min -2.

Compounds listed so far that contain an aryl methoxy group:
Screening COC(=O)C1=C(C)N(C)C(=O)NC1c1ccc(OC)c(OC)c1 (stereo not drawn) returned NPYLR7 agonist -9 and NPYLR7 agonist max-min -11.
For CCOC(=O)C1(Cc2cccc(OC)c2)CCN(Cc2nc3ccccc3nc2C)CC1 the results were NPYLR7 agonist -8 and NPYLR7 agonist max-min -15.
Screening COc1ccc(-c2[nH]ncc2C(=O)N(C)CC(F)(F)F)cc1 returned NPYLR7 agonist -30 and NPYLR7 agonist max-min -28.
`COc1cc(COC2CN(C(=O)c3csc(C(C)=O)c3)CC(=O)N(C(C)C)C2)cc(OC)c1` (stereo not drawn) gave NPYLR7 agonist 0 and NPYLR7 agonist max-min -6.
Screening COc1ccc(OC)c2c(N3CCN(C)CC3)cc(C(F)(F)F)nc12 returned NPYLR7 agonist 10 and NPYLR7 agonist max-min 5.
`COc1cccc(OC)c1OCC(O)CNc1c(F)cc(C#N)cc1F` (stereo not drawn) gave NPYLR7 agonist -8 and NPYLR7 agonist max-min -6.
`COc1cc(=O)n2c(c1C(=O)NCCCn1ccnc1)CCN(CC1=CC[C@H]3C[C@@H]1C3(C)C)CC2` gave NPYLR7 agonist 9 and NPYLR7 agonist max-min 6.

Additional structures:
Screening Cc1cc(C)c2nc(NN=Cc3ccc(O)c(O)c3)cc(C)c2c1 returned NPYLR7 agonist -9 and NPYLR7 agonist max-min -13.
Screening CCOC(=O)c1ccc(N2CCCN(c3ncccc3C#N)CC2)nc1 returned NPYLR7 agonist -1 and NPYLR7 agonist max-min -3.
CCc1ccc(-c2nc(C(=O)NNS(=O)(=O)c3cc(Cl)ccc3Cl)cs2)cc1 was read as NPYLR7 agonist 0 and NPYLR7 agonist max-min 5.
For COc1ccc(-c2nc(CSc3ncccn3)cs2)cc1OC the results were NPYLR7 agonist 6 and NPYLR7 agonist max-min 5.
Screening COc1ccc(C(=O)N2CCN(CCSc3ccccc3)CC2)cc1 returned NPYLR7 agonist -4 and NPYLR7 agonist max-min -6.
`Cc1cc(Cl)ccc1OCC(=O)N=Nc1c(O)[nH]c2ccc(Cl)cc12` gave NPYLR7 agonist 2 and NPYLR7 agonist max-min 2.
`CC(C)CN(C(=O)c1ccc(Br)o1)C1CCS(=O)(=O)C1` (stereo not drawn) gave NPYLR7 agonist 3 and NPYLR7 agonist max-min 2.
Screening COc1ccc(CN2C(=O)c3ccccc3C2=O)cc1F returned NPYLR7 agonist 8 and NPYLR7 agonist max-min 11.
`NC(=O)C1CCN(CC(=O)Nc2oc3ccccc3c(=O)c2-c2ccccc2)CC1` gave NPYLR7 agonist 5 and NPYLR7 agonist max-min 3.
For CC(O)(C#CCO)c1ccc2ccccc2c1 (stereo not drawn) the results were NPYLR7 agonist -2 and NPYLR7 agonist max-min -4.
For COC(=O)c1sc(N)c(C(=O)OC)c1Cn1ncc(Cl)c(Cl)c1=O the results were NPYLR7 agonist -2&10 and NPYLR7 agonist max-min -4&7.
`CCc1nc2n(n1)C(=O)C(C(c1cccc(OC)c1)N1CCc3ccccc3C1)S2` (stereo not drawn) gave NPYLR7 agonist -6 and NPYLR7 agonist max-min -10.
For COc1ccc(-c2cc(CC(=O)N3CC(C)OC(C)C3)no2)cc1 (stereo not drawn) the results were NPYLR7 agonist 10 and NPYLR7 agonist max-min 9.
For O=C1CCC(NS(=O)(=O)c2ccc(Cl)cc2)C(=O)N1 (stereo not drawn) the results were NPYLR7 agonist -5 and NPYLR7 agonist max-min -4.
Screening COC(=O)c1sc(N)c(C(=O)OC)c1CSc1nnc(C(F)(F)F)n1C returned NPYLR7 agonist 4 and NPYLR7 agonist max-min 5.
For CCCN1C(=O)C(c2c(CC)[nH]n(-c3ccc(Cl)c(Cl)c3)c2=O)=C([n+]2cccc(C)c2)C1=O the results were NPYLR7 agonist -6 and NPYLR7 agonist max-min -3.
Screening Cc1ccc(NC(=O)c2ccccc2)cc1NC(=O)CC(C)(C)CC(=O)O returned NPYLR7 agonist 6 and NPYLR7 agonist max-min 1.
Cc1nnc(-c2cc3ccccc3n2Cc2ccccc2)o1 was read as NPYLR7 agonist -8 and NPYLR7 agonist max-min -4.
For Cc1csc(NC(=O)COC(=O)c2ccc(CN3CCCC3=O)cc2)n1 the results were NPYLR7 agonist 2 and NPYLR7 agonist max-min 0.
`COc1ccccc1CCNC(=O)c1ccccc1N1CCC(NC(=O)c2ccccc2Cl)CC1` gave NPYLR7 agonist -1 and NPYLR7 agonist max-min 6.
Screening Cc1ccc(-c2csc(C(N)=O)c2)c2cccnc12 returned NPYLR7 agonist 3 and NPYLR7 agonist max-min 3.
`CCC(NS(N)(=O)=O)C(C)(C)c1ccccc1` (stereo not drawn) gave NPYLR7 agonist -2 and NPYLR7 agonist max-min -6.
Cc1ccccc1CN(CCO)C(=O)c1c(Cl)c(C)nn1C was read as NPYLR7 agonist 1 and NPYLR7 agonist max-min 0.
For CC1(C(=O)NS(=O)(=O)c2cccc(C#N)c2)CCN1C(=O)CCc1cccs1 (stereo not drawn) the results were NPYLR7 agonist 10 and NPYLR7 agonist max-min 6.
`COc1ccc(CCN(Cc2sccc2C)C(=O)CN(CC(C)C)C(=O)c2cc(Cl)cc(Cl)c2)cc1OC` gave NPYLR7 agonist -3 and NPYLR7 agonist max-min 3.
COc1ccc(NC(C)(C)C(=O)N2CCN3CCN(C)C(=O)C3C2)cc1 (stereo not drawn) was read as NPYLR7 agonist 4 and NPYLR7 agonist max-min 3.
For CCN(C/C=C/c1ccccc1)C(=O)c1cccc2cnccc12 the results were NPYLR7 agonist 2 and NPYLR7 agonist max-min -6.
Cc1cc(C(=O)N/N=C\c2c[nH]c3ccccc23)c2ccccc2n1 was read as NPYLR7 agonist 10 and NPYLR7 agonist max-min 17.
For CC(C#N)c1nc2ccccc2n1C(F)F (stereo not drawn) the results were NPYLR7 agonist 0 and NPYLR7 agonist max-min 6.
For CCn1c(C2CCN(Cc3cccn3-c3ccccn3)CC2)n[nH]c1=O the results were NPYLR7 agonist 3 and NPYLR7 agonist max-min -1.
`Fc1cc(CN2CC(c3ccncc3)C2)ccc1C(F)(F)F` gave NPYLR7 agonist 6 and NPYLR7 agonist max-min 4.
Screening CCCn1c(N2CCN(Cc3ccc(Cl)c(Cl)c3)CC2)nc2c1c(=O)[nH]c(=O)n2C returned NPYLR7 agonist -9 and NPYLR7 agonist max-min -12.
`CC(=O)N1CCN2C(=O)N(CCO)C(=O)[C@H]2C1` gave NPYLR7 agonist -8 and NPYLR7 agonist max-min -18.
Screening CCC(C(=O)Nc1cc(-c2ccc(OC)cc2)nn1-c1ccc(C)cc1)c1ccccc1 (stereo not drawn) returned NPYLR7 agonist 10 and NPYLR7 agonist max-min 2.
For CC(C)(O)C#Cc1ccc(CN2CC(c3ccncc3)C2)cc1 the results were NPYLR7 agonist 19 and NPYLR7 agonist max-min 12.
For COc1ccc(NC(=O)CCC2CCN(C(=O)c3cccnc3OC)CC2)c(OC)c1 the results were NPYLR7 agonist 5 and NPYLR7 agonist max-min -1.
For Cc1cc(C)c(SCC(=O)N(CCC#N)CCC#N)c(C)c1 the results were NPYLR7 agonist 2 and NPYLR7 agonist max-min -1.
Screening CC(C)=CC(=O)Nc1ccc2[nH]cc(CCN3CCN(c4cccc(C(F)(F)F)c4)CC3)c2c1 returned NPYLR7 agonist 2 and NPYLR7 agonist max-min 11.
`CC(C(=O)NCCn1[nH]c(=O)ccc1=O)N1C[C@@H](C)O[C@@H](C)C1` (stereo partly drawn) gave NPYLR7 agonist -6 and NPYLR7 agonist max-min -7.
For CC(C(=O)N1CCNC1=O)N1CCC(c2nc3ccccc3o2)CC1 (stereo not drawn) the results were NPYLR7 agonist 8 and NPYLR7 agonist max-min 4.
CC12CCC(C(=O)N(CSC(=S)N/N=C/c3ccccc3O)C1=O)C2(C)C (stereo not drawn) was read as NPYLR7 agonist 14 and NPYLR7 agonist max-min 12.
Screening O=C(NNS(=O)(=O)c1ccc2ncccc2c1)c1ccccc1F returned NPYLR7 agonist 12 and NPYLR7 agonist max-min 8.
For CCCCCCCCn1c(N2CCC(C(N)=O)CC2)nc2c1c(=O)[nH]c(=O)n2C the results were NPYLR7 agonist -1 and NPYLR7 agonist max-min 46.
For CSc1ccc(CN2CCC2(C)C(=O)Nc2cccc3cccnc23)cc1 (stereo not drawn) the results were NPYLR7 agonist 4 and NPYLR7 agonist max-min 3.
Screening CC(NC(=O)COc1ccc(C(F)(F)F)cc1)c1cccc(F)c1 (stereo not drawn) returned NPYLR7 agonist -4 and NPYLR7 agonist max-min -5.
Screening CC(C)N(CCN1C(=O)CSC1c1ccccc1Cl)C(=O)C1CCC1 (stereo not drawn) returned NPYLR7 agonist 5 and NPYLR7 agonist max-min 7.
Cc1ccc(NC(=O)CC(=O)NC(C)CCn2cccn2)cc1Cl (stereo not drawn) was read as NPYLR7 agonist 8 and NPYLR7 agonist max-min 6.
Screening Cc1cc(C2=NNC(=NC3CC3)SC2)c(C)n1CC1CCCO1 (stereo not drawn) returned NPYLR7 agonist 10 and NPYLR7 agonist max-min 2.
Screening CCOC(=O)c1cc(-c2cccc(NC(=O)c3ccc4ccccc4n3)c2)n(-c2ccc(OC)cc2)n1 returned NPYLR7 agonist 6 and NPYLR7 agonist max-min 3.
Screening COCCCNC(=O)NC(=O)CSc1nnc(Nc2cccc(OC)c2)s1 returned NPYLR7 agonist 0 and NPYLR7 agonist max-min -1.
For O=c1[nH]cccc1NS(=O)(=O)c1ccc2c(c1)CCC2 the results were NPYLR7 agonist 14 and NPYLR7 agonist max-min 15.
For CN(Cc1nc(-c2ccc(Cl)cc2)no1)C1CCOC1 (stereo not drawn) the results were NPYLR7 agonist 2 and NPYLR7 agonist max-min -4.
For CN(C)CCNC(=O)c1coc(CN(Cc2cccc(C(F)(F)F)c2)Cc2ccc(F)cc2F)n1 the results were NPYLR7 agonist -10 and NPYLR7 agonist max-min 11.
For N#Cc1cccc(CNC(=O)N(CC2CCCO2)C2CCCC2)c1 (stereo not drawn) the results were NPYLR7 agonist 6 and NPYLR7 agonist max-min 1.

Screens (PubChem)

Only part of the results is shown; the hit share may differ from the screen's.
